# NPYLR7 agonist: agonists of mosquito NPYLR7 receptor, primary screen, cell-based, Aedes aegypti, calcium fluorescence, mosquito biting behavior; HEK293T NPYLR7/Galpha15, GCaMP6s calcium fluorescence; activation, % at 10 µM; Aedes aegypti neuropeptide Y-like receptor 7 (NPYLR7); 0.15% of 270,000 active; in the data active = activation above about 40%;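 also: 0% = vehicle and 100% = reference agonist at the receptor; some compounds past the cut are filed as inactive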
# NPYLR7 agonist max-min: recorded beside NPYLR7 agonist, whose call it bears; activation, %; measured here: Max-Min RFU normalised activation; some inactives read as strong as hits;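 span of the calcium signal over five minutes; 0% = vehicle and 100% = native peptide agonist; compound fluorescence can raise it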
# * = called active by the depositor; & = joins results of further samples.
molecule	NPYLR7 agonist max-min	NPYLR7 agonist
C=CCn1c(COc2ccccc2C)n[nH]c1=S	2	2
CCCCNC(=O)c1csc(CN(CCCC)C(=O)c2cc(C(F)(F)F)cc(C(F)(F)F)c2)n1	16	9
Cc1ccc(Cl)cc1Nc1ncccc1C(=O)NCCc1cccc(Cl)c1	-6	-1
CC(C)Cc1cc(C(=O)N2CCNCC2C(=O)N2CCOCC2)n(C)n1 (stereo not drawn)	3	6
CN(C)c1cccc2c(S(=O)(=O)Nc3ccccc3C(=O)NC3CCCCC3)cccc12	8	-2
CN1C(=O)NC(NC(=O)c2ccccc2)(C(F)(F)F)C1=O (stereo not drawn)	-8	-1
CCn1c(CC2CCNCC2)nn(Cc2cccc(C)n2)c1=O	-1	1
CC(C)n1nccc1NC(=O)NCc1ccnc2ccccc12	319	-6
c1ccc2c(CSc3ncn[nH]3)cccc2c1	-10	-10
Cc1cccc(-n2c(-c3ccc(Cl)cc3)cc(C(=O)NCc3ccco3)c2C)c1	14	16
O=C(NC(c1ccc(F)cc1)c1ccccn1)C1CCN(CCOc2ccc(Cl)cc2Cl)CC1 (stereo not drawn)	-7	-5
CC(CCc1ccccc1)NC(=O)Cc1cc(=O)[nH]c(SCc2ccc(F)cc2)n1 (stereo not drawn)	-14	-9
CCn1nc(C)cc1C(=O)Nc1ccc(Cl)c(C(=O)OC(C)C)c1	-8	-5
COC(=O)c1oc(CN(C)C(C)c2ccc(S(N)(=O)=O)cc2)cc1C (stereo not drawn)	12	12
O=C(NCc1ccc2c(c1)OCO2)c1cccnc1N1CCN(C(=O)C2C[C@H]2c2ccccc2)CC1 (stereo partly drawn)	4	20
C#Cc1cccc(C(=O)N2CCCC(N3CCN(c4cccc(C(F)(F)F)c4)CC3)C2)c1 (stereo not drawn)	-2&-1	2&3
COCCNC(=O)c1csc(COc2cccc(OC)c2)n1	-5	1
Cn1cc(NS(=O)(=O)c2cccs2)cc(Cl)c1=O	26	32
CCC#CCN1CCc2ccccc2N(CC(C)O)CCC1=O (stereo not drawn)	16	7
O=C(O)[C@H]1C[C@@H](C(=O)Nc2ccc(F)cc2)CN(Cc2cccnc2)C1	-7	-7
CCOc1ccc(-n2c(C(C)N(CCc3ccc(OC)c(OC)c3)C(=O)c3cccc(Br)c3)nc3ccccc3c2=O)cc1 (stereo not drawn)	34	25
O=C(c1ccccc1F)N(Cc1cccc(OS(=O)(=O)c2ccc(F)cc2)c1)C1CC1	17	3
CN(C)CC1(O)CCN(C(=O)c2cc(-c3ccccc3)nc3ccccc23)C1 (stereo not drawn)	7	10
O=C(NNS(=O)(=O)c1ccccc1)c1cc2c(s1)CCCCC2	-3	-2
O=C(Nc1cccc(Oc2ccccc2)c1)N1CCC(CO)CC1	-28	-30
COc1cccc(Nc2ncnc3sc4c(c23)CCCC4)c1	4	7
COCC(c1ccccn1)N(C)C(=O)CSc1nnc(C)s1 (stereo not drawn)	9	9
CC(=O)Nc1cccc(NC(=O)CNC(=O)c2cccs2)c1	9	1
O=C(NCC1CCN(c2ccc(F)cc2)C1)Nc1ccccc1F (stereo not drawn)	-6	-2
CN1CCN(CC(=O)NC2(C)CCCCC2c2ccc(O)cc2)CC1 (stereo not drawn)	1	2
CN(C)S(=O)(=O)c1cc(NCC(=O)N2CCc3ccccc32)ccc1Cl	2	4
COCc1nc(NCc2cc(CC(C)C)no2)c2cnn(C)c2n1	-2	2
O=C(C1CNCCN1C(=O)c1ccc(-n2cnnc2)cc1)N1CCOCC1 (stereo not drawn)	4	9
COCCNc1c2c(nc3c(-c4ccccc4)c(C)nn13)CCC2	7	3
COc1ccc(NC(=O)C2(C)CCN2Cc2csc3ccccc23)cc1OC (stereo not drawn)	9	13
COc1cc(Cl)cc2cc(C(=O)N3CCC(O)(CN(C)C)C3)oc12 (stereo not drawn)	4	9
Cc1ccc(Cc2nsc(N3CCCN(C(=O)c4ccccc4Br)CC3)n2)cc1	5	-5
COc1ccccc1-n1c(SCc2nc(C(=O)NCCCN3CCOCC3)cs2)nnc1-c1ccncc1	16	13
CCOC(=O)C1CCCN(C(c2cccs2)C2Sc3nc(CC)nn3C2=O)C1 (stereo not drawn)	11	-2
C=CCN1C(=O)C(=O)N(CC(=O)NC23CC4CC(CC(C4)C2)C3)C1=O	-4	-1
COc1ccc(CCN(C)Cc2nc(-c3ccc(OC)c(OC)c3OC)no2)cc1OC	-3	-1
CC(=O)N1CCN(c2ccc(NC(=O)/C=C/c3ccc(-c4ccc(C)c(Cl)c4)o3)cc2)CC1	-2	0
CN(C)c1c(Cl)cccc1NC(=O)COC1CCCC1	-1	0
Cc1cc([N+](=O)[O-])cc2c(N=Nc3ccc([N+](=O)[O-])cc3)c(O)[nH]c12	-8	-2
Cc1cccc(NC(=O)CN(C)C(=O)c2ccc(-n3cccc3)nc2)n1	6	9
CCOc1ccc(C(=O)c2nc3c(n2O)CCCCC3)cc1OCC	8	20
Cc1nn(-c2ccccc2)c2nc(Cc3ccccc3)nc(N3CCN(S(=O)(=O)C[C@]45CCC(CC4=O)C5(C)C)CC3)c12	9	4
COc1ccccc1CC(C)N(C)C(=O)c1ccc(C)nc1C (stereo not drawn)	-1	0
Cn1c(=O)[nH]c(=O)c2c1nc(N1CCNCC1)n2Cc1cccc(Cl)c1	-9	-6
Cc1ccc(-c2ccnc(N3CCNC(C(=O)O)C3)n2)c(C)n1 (stereo not drawn)	-5	-3

# Continued.
molecule	NPYLR7 agonist max-min	NPYLR7 agonist
CC(C)(C)C1CCC(NC(=O)C2CC=CCC2C(=O)N2CCN(c3ccccn3)CC2)CC1 (stereo not drawn)	-16	-10
Cc1nn(C)c(C)c1CN(C)Cc1cc2n(n1)CCCNC2	-10	-3
O=C(NCC1CCCO1)c1csc(COc2ccc(F)cc2F)n1 (stereo not drawn)	9	3
CCc1nc(CC(=O)Nc2cc(C#N)cn2C(C)(C)C)cs1	1	5
CN1C(c2ccccc2)CC(=O)CC1c1ccccc1 (stereo not drawn)	16	-2
CCNC(=S)N1CCC(C(NC(=O)c2ccccc2)C(=O)N2CCCCC2C)CC1 (stereo not drawn)	-1	-2
COc1ccc(CN2CCN(Cn3ncn(-c4ccccc4OC)c3=S)CC2)cc1F	1	7
CCN1C(=O)CC(CC(=O)N2CCN(c3ccccc3O)CC2)(c2cccc(C(F)(F)F)c2)C1=O (stereo not drawn)	0	13
COc1ccc(S(=O)(=O)N2CCCCCC2)cc1C(=O)NCc1ccc(C(=O)N2CCCC2)cc1	-2	-3
CC1CCC(C(C)[C@H]2CCC3C4CC(=O)C5C[C@@H](O)CC[C@]5(C)C4CC[C@@]32C)=NC1 (stereo partly drawn)	2	4
C=CCOC(CN1CCN(C(=O)CCCCC(=O)OC)CC1)c1cccc(OC)c1 (stereo not drawn)	4	4
CCn1c(CC2CCNCC2)nn(Cc2cccc(-n3cccn3)c2)c1=O	9	11
O=C1NC2(CCCCCC2)C(=O)N1Cc1cc(=O)oc2ccc3ccccc3c12	3	-3
COc1ccc(-c2nc3scc(CCNS(=O)(=O)c4cccs4)n3n2)cc1OC	-10	-9
O=C(NNc1ncccn1)c1c2c(nc3ccccc13)CCCC2	5	7
CCN(C(=O)c1nn(-c2ccc(C)cc2)c(=O)cc1OC)c1ccccc1	2	9
CC(=O)N1CCN(c2ccc(C(=O)NC3CC(C)(C)N(C)C(C)(C)C3)cn2)CC1c1ccccc1 (stereo not drawn)	7	6
CC(C)c1nc(COC(=O)c2cc(S(N)(=O)=O)c(Br)s2)cs1	5	5
CC(=O)N1CCc2ccccc2C1CC(=O)NCc1ccn[nH]1 (stereo not drawn)	3	6
O=[N+]([O-])c1nn(-c2ccc(Cl)cc2)n(O)c1=NCCCO	1	2
O=C(c1ccccc1)N1CCOC(CCc2ccccc2)C1 (stereo not drawn)	2	4
O=C(N=Nc1c(O)[nH]c2ccc(F)cc12)c1ccccc1O	-2	4
COC(=O)CC(NS(=O)(=O)N1CC(C)OC(C)C1)c1ccc(C)cc1 (stereo not drawn)	13	-1
CN(CCO)c1nc2c([nH]1)c(=O)[nH]c(=O)n2C	-6	-6
COC(=O)c1cc2n(n1)CCN(S(=O)(=O)N(C)C)C2	1	6

# For reference, part of the list above:
molecule	NPYLR7 agonist max-min	NPYLR7 agonist
CC(C)(C)C1CCC(NC(=O)C2CC=CCC2C(=O)N2CCN(c3ccccn3)CC2)CC1 (stereo not drawn)	-16	-10
Cc1nn(C)c(C)c1CN(C)Cc1cc2n(n1)CCCNC2	-10	-3

# Some of the entries above in another layout.
# Every second line gives: NPYLR7 agonist max-min	NPYLR7 agonist
COc1ccc(S(=O)(=O)N2CCCCCC2)cc1C(=O)NCc1ccc(C(=O)N2CCCC2)cc1
→ -2	-3
CC1CCC(C(C)[C@H]2CCC3C4CC(=O)C5C[C@@H](O)CC[C@]5(C)C4CC[C@@]32C)=NC1 (stereo partly drawn)
→ 2	4
C=CCOC(CN1CCN(C(=O)CCCCC(=O)OC)CC1)c1cccc(OC)c1 (stereo not drawn)
→ 4	4
CCn1c(CC2CCNCC2)nn(Cc2cccc(-n3cccn3)c2)c1=O
→ 9	11
O=C1NC2(CCCCCC2)C(=O)N1Cc1cc(=O)oc2ccc3ccccc3c12
→ 3	-3
COc1ccc(-c2nc3scc(CCNS(=O)(=O)c4cccs4)n3n2)cc1OC
→ -10	-9
O=C(NNc1ncccn1)c1c2c(nc3ccccc13)CCCC2
→ 5	7
CCN(C(=O)c1nn(-c2ccc(C)cc2)c(=O)cc1OC)c1ccccc1
→ 2	9
CC(=O)N1CCN(c2ccc(C(=O)NC3CC(C)(C)N(C)C(C)(C)C3)cn2)CC1c1ccccc1 (stereo not drawn)
→ 7	6
CC(C)c1nc(COC(=O)c2cc(S(N)(=O)=O)c(Br)s2)cs1
→ 5	5
CC(=O)N1CCc2ccccc2C1CC(=O)NCc1ccn[nH]1 (stereo not drawn)
→ 3	6
O=[N+]([O-])c1nn(-c2ccc(Cl)cc2)n(O)c1=NCCCO
→ 1	2
O=C(c1ccccc1)N1CCOC(CCc2ccccc2)C1 (stereo not drawn)
→ 2	4
O=C(N=Nc1c(O)[nH]c2ccc(F)cc12)c1ccccc1O
→ -2	4
COC(=O)CC(NS(=O)(=O)N1CC(C)OC(C)C1)c1ccc(C)cc1 (stereo not drawn)
→ 13	-1
CN(CCO)c1nc2c([nH]1)c(=O)[nH]c(=O)n2C
→ -6	-6
COC(=O)c1cc2n(n1)CCN(S(=O)(=O)N(C)C)C2
→ 1	6

# The list goes on:
molecule	NPYLR7 agonist max-min	NPYLR7 agonist
CCOc1ccc(-n2c(-c3ccc(C)cc3)n[nH]c2=S)cc1	2	2
Cc1ccccc1NC(=O)CC(=O)NCC1(N2CCOCC2)CCCCCC1	-6	-1
CCN(C)S(=O)(=O)N1C[C@@H]2CN(C(=O)C3CC3)C[C@]2(C(=O)O)C1	12	2
C/C=C(\C)C(=O)NC1CCCN(CCc2ccccc2)C1 (stereo not drawn)	7	19
Cc1nc(NC(=O)Cc2c(C)nn(CC(C)C)c2C)sc1-c1nccn1C	7	11
CCc1cc(C(C)NCC(=O)Nc2ccc(Cl)c(OC)c2)on1 (stereo not drawn)	-8	24
COc1cccc(CN(CCc2c[nH]c3ccccc23)Cc2nc(C(=O)NCc3ccncc3)co2)c1OC	29	21
CC(C)(O)C#Cc1ccc(C(=O)NCc2cn[nH]c2-c2cccs2)cc1	-4	-3
O=C(NCCNC(=O)c1ccccc1Cl)Nc1ccc(F)cc1	1	2
CCN(CCn1cccn1)C(=O)CC1C(=O)NCCN1CC1CCCCC1 (stereo not drawn)	0	2
O=C(C1CCC1)N(Cc1cccc(Cl)c1)Cc1nc2cc(Cl)ccc2o1	-3	5
COC1CCCN(Cc2nc(-c3cccc(C(F)(F)F)c3)oc2C)C1 (stereo not drawn)	4	17
Cc1nc2ccc(C(=O)Nc3cnc4n3CCCC4)cc2nc1C	-4	-4
O=C(Cc1ccccc1O)Nc1cnc(-c2ccccc2)nc1	9	17
COc1ccc(C(NC(=O)C23CC4CC(CC(C4)C2)C3)c2nccn2C)cc1 (stereo not drawn)	6	8
O=S(=O)(c1ccc(Cl)cc1)N1CCCN(CC2CCCO2)CC1 (stereo not drawn)	0	-2
Cc1ccccc1C(NC(=O)C1CCN(Cc2ccc(Cl)cc2)CC1)c1cnccn1 (stereo not drawn)	-6	-2
Clc1cc(Cl)c2nc(N3CCN(c4nc5ccccc5s4)CC3)sc2c1	0	5
CC(C)(C)CC(C)(C)c1ccc(OCCOCC[N+](C)(C)Cc2ccccc2)cc1	-6&-13&12	-3&-8&14
CCOC(=O)C1CCCN(C(=O)c2c(CC)nn(-c3cccc(Cl)c3)c2CC)C1 (stereo not drawn)	26	20
O=C(c1ccccc1F)N1CCc2c([nH]c3ccccc23)C1c1ccc([N+](=O)[O-])c(Cl)c1 (stereo not drawn)	-11	-7
OCCOc1cccc(CN2CCN(Cc3ccccc3F)C(CCO)C2)c1 (stereo not drawn)	-3	-2
Cc1ccc(C(=O)CSc2nnc(-c3ccncc3)n2C)c(C)c1	-12	-14
CCS(=O)(=O)Oc1ccc(Cl)cc1CN(CCOC)C(=O)C1CCC1	16	8
CN1N=C(C(=O)Nc2ccccc2COc2ccccc2)CCC1=O	-25	-26
Cc1cc(=O)n2c(-c3ccc(NS(=O)(=O)Cc4ccccc4)cc3)csc2n1	-6	-7
COC(=O)C(C)(C)NS(=O)(=O)N1CCCC(C)C1 (stereo not drawn)	20	-1
Cc1ccccc1CN1CCN(c2ncc(C(=O)NCc3ccccc3)s2)C1=O	-7	-6
COCCn1c(N)cc(=O)[nH]c1=O	0	1
C[C@@]1(O)CCN(Cc2cnc(-c3ccccn3)nc2)C[C@@H]1Cc1ccccc1	3	3
C1=CC2C(=NNc3ccccn3)CC2C1 (stereo not drawn)	-12	-9

# High-throughput results deposited in PubChem BioAssay by Fisher Drug Discovery Resource Center.

# The list is partial; the hit share may differ from the screen's.
